Screens from PubChem BioAssay.
AF4-AF9 inh – inhibitors of human MLL-AF4/AF9 interaction | P42568 | AlphaScreen, biotin-AF4 peptide binding to FLAG-AF9 | inhibition, % at 10 µM | 0.47% of 350,000 active | AID 651704;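 active means every replicate reaching a set inhibition limit, whatever the replicate mean, cut at about 25% in these data; inconclusive means mean inhibition reaches that limit but some replicates miss it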;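 further: 0% = plate neutral control median and 100% = total signal loss; the record names both 10 and 1 µM as test concentration; the first replicate is given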
Target sequence (P42568 whole entry, looked up): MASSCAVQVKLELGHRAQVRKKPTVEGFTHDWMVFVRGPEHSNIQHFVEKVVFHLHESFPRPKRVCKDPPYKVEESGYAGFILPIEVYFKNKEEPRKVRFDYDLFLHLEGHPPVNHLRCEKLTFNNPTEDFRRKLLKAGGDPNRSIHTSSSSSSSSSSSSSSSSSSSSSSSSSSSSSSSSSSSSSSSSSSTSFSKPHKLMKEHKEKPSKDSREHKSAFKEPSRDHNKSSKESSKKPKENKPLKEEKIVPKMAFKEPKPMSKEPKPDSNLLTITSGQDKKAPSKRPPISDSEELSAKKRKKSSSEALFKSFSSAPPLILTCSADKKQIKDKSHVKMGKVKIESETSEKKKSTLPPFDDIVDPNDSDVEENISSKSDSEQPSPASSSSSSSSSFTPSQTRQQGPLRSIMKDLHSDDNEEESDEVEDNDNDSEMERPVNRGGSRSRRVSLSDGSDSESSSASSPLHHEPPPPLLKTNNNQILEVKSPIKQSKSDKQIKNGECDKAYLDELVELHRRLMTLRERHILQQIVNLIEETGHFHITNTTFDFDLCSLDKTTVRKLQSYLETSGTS
T cruzi inh – T. cruzi replication inhibition. T. cruzi beta-gal in NIH3T3, luminescence, 90 h. inhibition, % (concentration not given with the values). 1.4% of 300,000 active;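 active means mean inhibition across valid replicates above about 55%, limit read from the data; inconclusive means mean below that limit but half or more replicates reach it; inactive means mean below it, under half of replicates reach it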;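 further: signal also drops with host cell toxicity which is not excluded here; 0% = plate median of DMSO wells and 100% = zero luminescence signal; higher percent means less beta-gal luminescence so fewer parasites; stock transfer was 50 nL into about 50 µL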
Ecoli rRNA inh – inhibitors of bacterial rRNA selective over humanized ribosomes; 1.6% of 350,000 active; E. coli WT GFP vs humanized-ribosome RFP mutants, fluorescence, 24 h; active compounds read low; DMSO median 0, no signal -100; AID 720706; GFP signal change (wild-type ribosome), % (concentration not given with the values);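 active means significant combined selectivity score with lowered wild-type GFP, culture density cut under 30%, mutant RFP and density less affected; inactive means any of these conditions unmet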; further: one replicate is shown; some compounds called inactive have numbers as strong as hits
A1 inh – inhibitors of the anti-apoptotic protein A1, read as caspase activation. AID 2462. MEF A1-2A-BIM cells, Caspase-Glo 3/7 luminescence, 3 h; percent of clofoctol response, vehicle zero. 0.066% of 330,000 active. caspase activation, % (test concentration not listed);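 active means over half of replicate activation scores above 10%, or exactly half above 10 with the replicate mean above 10; inconclusive means replicate mean below 10 yet half the replicates above 10; inactive means over half of replicates below 10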;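 further: wells of about 30 µL received 50 nL stock; many hits fall short of the cut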
RanGTP-Imp inh – inhibitors of RanGTP-importin-beta interaction, primary screen, biochemical, FRET, CFP-Ran, YFP-importin-beta, homogeneous | cell-free CFP-Ran/YFP-importin-beta FRET ratio | inhibition, % (no concentration beside the values) | 1.1% of 300,000 active | AID 2216;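 active means most replicates above 15%; inconclusive means exactly half above 15%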;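 further: 0% = DMSO wells and 100% = Ran loaded with GDP instead of GTP; wells of about 40 µL received 100 nL stock; the first replicate is given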
Calb FLC – affects C. albicans growth with fluconazole; C. albicans CaCi-2 (fluconazole-resistant clinical isolate) + fluconazole, Alamar Blue growth, 48 h; growth inhibition, % (no concentration beside the values); 0.57% of 300,000 active;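 active means most replicates above 75%; inconclusive means exactly half above 75%; inactive means most below 75%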;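 further: all wells also contain fluconazole at 8 µg/ml as a sub-toxic cotreatment; 0% = median of DMSO wells and 100% = median of geldanamycin control wells; wells of about 8 µL received 7.5 nL stock; the first replicate is given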
Vif TR-FRET – HIV-1 Vif–A3G interaction blockers – biochemical, TR-FRET, GST-Vif 1-94, biotin-A3G peptide, dose response retest, primary screen (AID 1117319); inhibition, %, or IC50 in µM where a hit was titrated; 0.57% of 260,000 active; TR-FRET GST-Vif / biotin-A3G peptide binding; higher % means a stronger effect; test concentration not given here; strong numbers were not always called active;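 active means above the screen mean plus three standard deviations and confirmed in dose response; inconclusive means results disagree or hit not tested in dose response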;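 further: Vif residues 1-94 fused to GST binding biotinylated APOBEC3G peptide 110-148; 0% = full assay without inhibitor and 100% = GST in place of GST-Vif; retest series ran down from 100 µM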
Beta apoptosis – blocks beta cell apoptosis; INS-1E cytokine-induced death, ATP luminescence, 48 h; percent of positive-control rescue, neutral wells zero; protection from apoptosis, % (no concentration beside the values); 0.8% of 300,000 active;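 active means all replicates at 75% or more, or half of them and the mean; inconclusive means half reach 75% but not the mean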;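 further: 0% = cytokine-treated negative control wells and 100% = positive control rescue; higher means more ATP so stronger rescue from cytokine killing; wells of about 40 µL received 100 nL stock; the first replicate is given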
Ecoli rRNA inh OD600 – further read-out of Ecoli rRNA inh, marked with its call; OD600 change, %; measured here: OD600 growth;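 optical density of the mix in the first replicate; 0 = DMSO median and -100 = no signal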
Ecoli rRNA inh RFP – further read-out of Ecoli rRNA inh, marked with its call; RFP signal change, %; measured here: RFP humanized mutant strains;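 first replicate; 0 = DMSO median and -100 = no signal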
Active calls of the source: *; u = inconclusive; x = no result given. The list is partial, so the mix of outcomes need not match the whole.

Every second line gives: AF4-AF9 inh	T cruzi inh	Ecoli rRNA inh	Ecoli rRNA inh OD600	Ecoli rRNA inh RFP	A1 inh	RanGTP-Imp inh	Calb FLC	Vif TR-FRET	Beta apoptosis
#1 Cc1ccccc1NC(=O)CSc1ccc2nnc(-c3ccccn3)n2n1
→ -4.0	-17	2	2	0.2	1.5	-1.6	-2	x	-3
#2 Cc1ccc(S(=O)(=O)c2nc(Nc3nccs3)sc2Cl)cc1
→ x	-7	x	x	x	0.8	3.1	43	0%	x
#3 CCOC(=O)c1c(C)sc2c1N(C(=O)CN1CCOCC1)c1cc(Cl)ccc1S2
→ x	34	x	x	x	0.0	4.0	5	-1%	-1
#4 CC1(C)CC(=O)C2=C(C1)OC(N)=C([N+](=O)[O-])C2c1ccc(C#N)s1 (stereo unspecified)
→ 0.9	9	-3	-7	18	0.7	u	-6	-2%	-4
#5 Cc1ccc(C)c(-c2cc(C(=O)Nc3sc(C)c(C)c3C(N)=O)c3ccccc3n2)c1
→ x	29	x	x	x	-0.2	0.3	-3	-1%	-5
#6 COc1ccccc1N(CC(=O)N(c1ccccc1)C(C)C)S(=O)(=O)c1cccs1
→ 4.0	15	-17	-12	-1.8	0.1	0.6	1	1%	-1
#7 CCN1C(=O)[C@@H]2[C@@H](c3ccc(-c4ccc(OC)cc4)cc3)N3CCCC[C@@]3(C(=O)OC)[C@@H]2C1=O
→ -3.4	7	13	6	4.9	1.0	-6.1	3	x	3
#8 CCOCCCNC(=O)CCn1nc(-c2ccc(Cl)cc2)ccc1=O
→ -1.3	-1	3	4	-0.5	0.0	2.3	5	-9%	1
#9 Cc1nn(Cc2ccc(F)cc2)c2sc(C(=O)Nc3ccccc3N3CCOCC3)cc12
→ 2.2	20	x	x	x	0.2	4.8	-14	x	x
#10 COc1ccc(C(=O)CCS(=O)(=O)c2ccc(C)cc2)cc1
→ -3.4	38	-1	0	-3.0	-0.1	1.0	-9	x	-8
#11 O=C1N/C(=N/c2ccccn2)SC1Cc1ccccc1 (stereo unspecified)
→ x	-1	x	x	x	0.6	4.2	-5	0%	1
#12 Cc1ccsc1C(=O)OCC(=O)NC1CCCC(C)C1C (stereo unspecified)
→ 0.4	x	4	-5	5.0	-0.8	x	x	-3%	-4
#13 COc1ccc(C2/C(=C(/O)c3ccc4c(c3)CC(C)O4)C(=O)C(=O)N2Cc2cccnc2)cc1 (stereo unspecified)
→ 1.8	-3	1	11	-5.8	0.4	1.4	29	x	-1
#14 CCc1ccc(NC(=S)N2CCN(c3cccc(OC)c3)CC2)cc1
→ u	-3	-2	-2	-1.2	0.9	1.5	-9	x	-4
#15 CC1=NN(C(N)=S)C(=O)C1N=Nc1cccc(Cl)c1 (stereo unspecified)
→ -1.3	-8	1	-1	-1.8	-6.6	0.4	1	x	18
#16 CC(C)/C=C/C(=O)N1CCCC(N2CCN(c3ccccc3F)CC2)C1 (stereo unspecified)
→ 4.3	15	0	-6	1.3	1.6	-0.9	-4	x	x
#17 N#C/C(=C\c1ccccc1)C(=O)N(c1ccccn1)C1CCCCC1
→ x	-9	x	x	x	0.1	4.5	4	3%	-3
#18 COc1ccc2cc(C(=O)C3CCCN(C(=O)c4cncs4)C3)ccc2c1 (stereo unspecified)
→ -1.7	26	-26	-29	-2.6	-0.4	-2.8	3	-10%	x
#19 N#C/C(=C\c1ccccc1)C(=O)NNS(=O)(=O)c1ccc(Br)cc1
→ -1.2	x	-7	4	-2.6	-0.2	x	x	-12%	-3
#20 C/C(=N\O)c1ccn(S(=O)(=O)c2ccc(Cl)cc2)c1
→ 1.7	11	x	x	x	0.4	u	5	-6%	-5
#21 COc1ccccc1CNc1ncnc2c1nnn2Cc1ccccc1
→ x	19	x	x	x	-0.3	8.4	1	1%	0
#22 Cc1ccc(S(=O)(=O)N2CCN(C(=O)CN3CCCCC3)C2C(C)C)cc1 (stereo unspecified)
→ 3.8	7	17	7	-5.1	0.2	0.0	0	u	-3
#23 Cc1nn(-c2ccccc2)c(Cl)c1/C=N/NC(=O)c1nn(C)cc1[N+](=O)[O-]
→ 1.8	-7	-30*	4.8*	0.7*	-0.7	u	-8	-7%	-57
#24 CC(=O)N1CCC(N(CCCOC(C)C)C(=O)Nc2ccc(Cl)cc2)CC1
→ -6.4	15	-11	-10	0.0	0.2	u	0	x	-1
#25 CCC1=C(OC(=O)N(CC)CC)N2C(=O)OC(=NCC3CC3)[C@]2(C)[C@H]2C1=CC[C@H]1C(=O)NC(=O)[C@H]12
→ 0.5	-8	2	8	3.7	1.3	5.3	-5	x	3
#26 Cc1ccc(S(=O)(=O)N2CCN(CC(=O)N/N=C\c3cccnc3)CC2)cc1
→ x	-3	x	x	x	0.2	5.8	-8	x	0
#27 CCN(CC)S(=O)(=O)c1ccc(N2CCOCC2)c(NC(=O)C2CSC3(C)CCC(=O)N23)c1 (stereo unspecified)
→ 0.2	15	-3	-3	1.9	0.3	-2.7	4	-1%	x
#28 Cc1nc2c(-c3ccc(F)cc3)c(C)nn2c(C)c1CCC(=O)N1CCC(Cc2ccccc2)CC1
→ -3.9	23	12	5	2.7	-0.1	u	-2	-6%	0
#29 CCCc1c(C(=O)N/N=C/c2cccc(OCc3ccc(F)cc3)c2)nnn1-c1nonc1N
→ -2.3	4	7	28	-2.5	0.6	-0.5	3	5%	0
#30 Cc1ccc(NC(=O)C2CCN(S(C)(=O)=O)CC2)c(C)c1
→ 4.7	0	4	-1	-1.3	1.0	1.6	-2	x	1
#31 COc1ccc(NC(=S)Nc2ccc(F)cc2)cc1
→ -3.0	-10	11	7	7.4	0.2	-9.8	-2	x	0
#32 COC(=O)CSc1nnc(CCc2nc3ccccc3[nH]2)n1C
→ x	-5	x	x	x	-0.9	u	2	22%	-2
#33 CCOc1ccc(-c2[nH]ncc2-c2csc(C)n2)c(O)c1
→ -18	-13	-2	-8	-2.0	0.0	0.7	30	21%	-4
#34 Cc1cc(C)n(C(=O)c2ccc(C)c(S(=O)(=O)N3CCCC3)c2)n1
→ x	-8	x	x	x	-0.9	0.1	-6	-3%	0
#35 Cc1[nH]n(-c2ccccc2)c(=O)c1N=Nc1ccc(C(N)=O)cc1
→ 0.8	-8	-8	12	-3.3	-0.7	-1.9	-3	2%	1
#36 CC(C)=NOc1cc(NC(=O)CCl)cc([N+](=O)[O-])c1
→ x	44	x	x	x	0.1	3.6	1	2%	-42
#37 CCOC(=O)/C(C(=O)Nc1ccc(Cl)cc1Cl)=C1/NC(C)(C)Cc2ccccc21
→ x	6	x	x	x	0.9	2.4	-8	x	-3
#38 COC(=O)c1ccc(CNC(=O)C2CCC(=O)N(Cc3cccc(F)c3)C2)cc1 (stereo unspecified)
→ 1.4	1	2	7	-1.7	1.8	3.8	-10	x	-6
#39 CCOC(=O)CN1C(=O)N[C@@H](CCc2ccccc2)C(C(=O)OC)=C1C
→ -7.8	-14	-2	4	-6.0	0.9	4.6	-1	x	-2
#40 Cc1cccc(NC(=O)c2cccc(NC(=O)c3ccccc3)c2)n1
→ -9.5	-1	-6	-5	-1.9	0.5	-2.2	15	6%	x
#41 Nc1c(C(=O)NCc2ccccc2)sc2nc3c(cc12)C(=O)CCC3
→ x	7	x	x	x	0.0	4.0	-2	-19%	3
#42 COc1ccc(CNCCC2(O)CC(C)N(C)CC2C)cc1OC (stereo unspecified)
→ 1.2	6	21	18	-0.8	-1.0	-1.4	2	15%	-1
#43 CC(O)c1cccc(NC(=O)Nc2cccc(NC(=O)Nc3cccc(C(C)O)c3)c2)c1 (stereo unspecified)
→ -2.4	-16	9	10	1.6	0.1	8.0	17	-8%	-5
#44 COc1ccc2c(c1)c1nc3n(c(=O)c1n2CC(=O)Nc1ccccc1)CCS3
→ 0.1	1	10	4	-0.5	1.3	-0.6	-6	x	12
#45 O=C(NCCc1cccc(C(F)(F)F)c1)C1CCC(=O)N(CCc2cccc(F)c2)C1 (stereo unspecified)
→ -0.5	-4	-14	-44	-2.5	0.1	0.2	9	x	5
#46 CCCN(CCC)C(=O)C1CCCN1S(=O)(=O)c1cccc2nsnc12 (stereo unspecified)
→ 2.7	4	-2	4	-5.9	0.1	5.1	-8	14%	-7
#47 O=C(COC(=O)c1ccc2c(c1)OCCO2)NCc1ccccc1
→ x	-21	x	x	x	-1.0	-0.6	x	-1%	-1
#48 O=C(COc1ccc(S(=O)(=O)NC2CCCCC2)cc1)NC1CCCC1
→ -2.1	7	1	-7	-2.3	1.6	1.5	12	x	-6
#49 COC(C[C@@H](O)C[C@H](O)COCc1ccccc1)OC
→ -1.1	8	9	10	3.1	x	-1.6	-13	18%	x
#50 O=C(NCc1ccc2c(c1)OCO2)C1CCN(S(=O)(=O)N2CCOCC2)CC1
→ x	-5	x	x	x	-0.2	-3.4	-4	u	1

Additional entries.
Every second line gives: AF4-AF9 inh	T cruzi inh	Ecoli rRNA inh	Ecoli rRNA inh OD600	Ecoli rRNA inh RFP	A1 inh	RanGTP-Imp inh	Calb FLC	Vif TR-FRET	Beta apoptosis
#51 COc1ccc(C(=O)Oc2cccc3cccnc23)cc1[N+](=O)[O-]
→ 1.7	-6	4	11	0.3	0.6	0.2	2	x	-1
#52 CCOc1ccc(NC(=O)CN(C)C(=O)c2c(-c3ccccc3)noc2C)cc1OCC
→ -5.0	x	-3	-3	0.5	1.0	x	x	5%	-1
#53 CC1(C)CC2CC(C)(CN2C(=S)Nc2ccccc2)C1 (stereo unspecified)
→ -0.8	-15	-14	-21	-8.7	0.3	-3.0	-3	-5%	-1
#54 CCCc1cc(=O)[nH]c(SCC(=O)c2ccc3c(c2)NC(=O)CO3)n1
→ -8.1	-1	4	7	6.2	-0.3	3.8	-6	-2%	-3
#55 O=C(NNC1=C(C(=O)C(F)(F)F)CCC1)c1ccc(Cl)cc1
→ x	3	x	x	x	-1.3	-3.8	109*	-8%	9
#56 O=C1CCC(C(=O)OCc2c(Cl)cccc2Cl)N1 (stereo unspecified)
→ 4.9	-4	14	11	-5.3	-0.3	1.8	20	0%	-2
#57 O=C(COC(=O)c1ccc(F)c(S(=O)(=O)N2CCOCC2)c1)NCc1ccco1
→ -1.4	-7	3	3	0.5	0.6	2.0	-13	3%	0
